Cruzain Triton: blocks cruzain activity in presence of Triton detergent | P25779 | purified cruzain, Z-FR-AMC fluorescence, 0.01% Triton | Potency, µM, for the others: max response, negative = inhibition, usual class: inhibitors | 0.43% of 200,000 active | AID 1478;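 note: plate controls were neutral wells for no effect and buffer without enzyme for full effect; nearly all actives have a fitted effect of over 40% in size; top concentration of the series not given in the record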
Target sequence (P25779 123-467 limits assumed): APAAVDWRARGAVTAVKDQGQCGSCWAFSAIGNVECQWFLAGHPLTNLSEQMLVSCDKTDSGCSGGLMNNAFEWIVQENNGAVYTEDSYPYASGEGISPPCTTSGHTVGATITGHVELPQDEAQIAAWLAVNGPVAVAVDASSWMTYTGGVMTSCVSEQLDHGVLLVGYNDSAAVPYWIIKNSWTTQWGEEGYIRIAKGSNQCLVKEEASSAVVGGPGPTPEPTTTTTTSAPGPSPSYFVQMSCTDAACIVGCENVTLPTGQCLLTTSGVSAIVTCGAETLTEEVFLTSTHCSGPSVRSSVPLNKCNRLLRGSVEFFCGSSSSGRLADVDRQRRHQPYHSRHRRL
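Sodium acetate buffer (100 mM, pH 5.5) containing 5 mM DTT and 0.01% Triton X-100 hosted 1.5 nM cruzain and test compound for 15 min at room temperature. Cleavage of 2 uM Z-FR-AMC was then tracked by fluorescence.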
Lassa entry inh: Lassa virus entry inhibition. Lassa virus pseudotype entry inhibition, cell reporter; control for the full effect not named in the record. Potency, µM (top dose mostly 37.9 µM), for the others: at the highest dose activity change, negative = inhibition, hits mostly inhibitors. 1.2% of 300,000 active. AID 540256; active means well fitted inhibition curve with a large enough effect; inconclusive means small, poorly fitted or top-dose-only effect, or effect the other way; inactive means flat fitted curve, though single readings scatter; tested in HEK293 cells; note: % is set by controls: 0 for no effect and ±100 for the full control effect; nearly all actives have a fitted effect of over 50% in size; luciferase read-out
RE007 growth inh: less growth of the S. pombe RE007 Vpr strain; Potency, µM (top dose mostly 92.2 µM), inactives show at the top dose activity change, negative = less growth; S. pombe RE007 Vpr strain, BacTiter-Glo ATP luminescence, 24 h; control for the full effect not named in the record; 0.21% of 360,000 active; AID 651644; active = well fitted falling curve with a large enough effect; inconclusive = small, poorly fitted or top-dose-only effect; inactive = no such curve, though single readings can be large or run the other way;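 note: % is set by controls: 0 for no effect and ±100 for the full control effect; nearly all actives have a fitted effect of over 50% in size; the assay follows cell death caused by Vpr and the record does not say whether a fall means rescue or toxicity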
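Fission yeast RE007 carrying one integrated HIV-1 vpr copy, seeded at OD 0.01 in PMG+AL medium with 23 nL pinned compound. Grown 24 h at 30 degrees; viability read by BacTiter-Glo luminescence after 5 min.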
MARV entry inh: Marburg virus entry inhibition; Potency, µM (highest dose often 37.8 µM), without a hit: at the top dose activity change, negative = inhibition, hits mostly inhibitors; 1.8% of 300,000 active; Marburg virus pseudotyped entry inhibition, cell reporter; control for the full effect not named in the record; about a third of the inactives were read at about 46 µM; AID 540276; active = well fitted inhibition curve with a large enough effect; inconclusive = small, poorly fitted or top-dose-only effect, or effect the other way; inactive = flat fitted curve, though single readings scatter; tested in HEK293 cells; about a fifth of its hits are not listed in these tables; note: % is set by controls: 0 for no effect and ±100 for the full control effect; luciferase read-out
Cruzain inh noDet: cruzain (T. cruzi) inhibition without detergent | P25779 | purified cruzain, Z-FR-AMC fluorescence, no detergent | Potency, µM, inactives show max response, negative = inhibition, usual class: inhibitors | 2.3% of 200,000 active | AID 1476;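 note: plate controls were enzyme without inhibitor for no effect and buffer without enzyme for full effect; nearly all actives have a fitted effect of over 40% in size; top concentration of the series not given in the record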
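Detergent-free condition (0.00005% Triton X-100) in acetate buffer pH 5.5 with DTT. 1.5 nM enzyme and compound were pre-mixed 15 min, then 2 uM Z-FR-AMC substrate added; reaction progress from fluorescence change between first and third reads (60 s).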
NS1 inh: influenza NS1 inhibition; S. cerevisiae slowed by influenza A NS1, growth recovery by OD600; Potency, µM (highest dose often 46.1 µM), without a hit: at the highest dose activity, positive = more growth; 0.4% of 270,000 active; active means well fitted rising curve with a large enough effect; inconclusive means small, poorly fitted or top-dose-only effect; inactive means no such curve, though single readings can be large or run the other way; note: nearly all actives have a fitted effect of over 50% in size
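Compounds were scored for reversing the slow growth caused by influenza A NS1 in S. cerevisiae, measured by optical density at 600 nm. Assay medium contained 2% galactose at pH 6.0; NS1-free yeast of the same strain were the positive control.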
SARS PLpro yeast: blocks SARS-CoV papain-like protease in a yeast assay; S. cerevisiae expressing SARS-CoV PLpro, growth rescue; control for the full effect not named in the record; Potency, µM (highest dose often 32.9 µM), for the others: at the highest dose activity, positive = growth rescue; 0.19% of 330,000 active; active means well fitted rising curve with a large enough effect; inconclusive means small, poorly fitted or top-dose-only effect; inactive means no such curve, though single readings can be large or run the other way; note: 0% is about no effect; nearly all actives have a fitted effect of over 55% in size; growth read by luminescence after 48 h
StopGo reporter: FMDV 2A StopGo reporter, luciferase signal; AID 1159524; human cells with a luciferase reporter of 2A StopGo recoding; control for the full effect not named in the record; 1.2% of 410,000 active; Potency, µM (top dose mostly 57.9 µM), for the others: top-dose signal change, negative = less light; active = well fitted falling curve with a large enough effect; inconclusive = small, poorly fitted or top-dose-only effect; inactive = no such curve, though single readings can be large or run the other way; tested in HEK293T cells; note: % is set by controls: 0 for no effect and ±100 for the full control effect; nearly all actives have a fitted effect of over 45% in size; luciferase light after 4 h
* = called active by the depositor; u = inconclusive; x = not tested or not shown; & = joins results of further samples; [ ] = remark or other dose. Unless noted, calls come from the whole dose curve; as a rule, active = well fitted curve in the direction sought with a large enough effect; inconclusive = small, poorly fitted or top-dose-only effect, or another doubt; inactive = no such curve, though single readings can be large; an effect the other way counts as inactive or inconclusive. Potency is the fitted concentration of half-maximal effect. Compounds were not picked by outcome; 4.7% or so of the library scored in one or more.

Structure	Cruzain Triton	Lassa entry inh	RE007 growth inh	MARV entry inh	Cruzain inh noDet	NS1 inh	SARS PLpro yeast	StopGo reporter
COc1ccccc1C(=O)N1CCC(c2noc(-c3ccc(S(=O)(=O)N4CCCC4)cc3)n2)CC1	-2.3%	-14%[46.1 µM]	x	-13%[46.1 µM]	u	x	x	u
CCCCc1cc(=O)oc2c(C)c(OCC(=O)NCCN3CCOCC3)ccc12	x	x	-2%	x	x	0%	-8%	9%
Cc1ccc(S(=O)(=O)N/N=C/c2ccc(OCC(=O)NC(C)C)cc2)cc1	x	0%	7%	0%	x	x	x	48%[activator]
CCC(CC)NC(=O)Cc1ccccc1[N+](=O)[O-]	3.8%	13%	-4%	6%[46.1 µM]	2%	9%	-6%	-2%
O=C(NCCc1ccccc1)c1ccc2c(c1)N(Cc1ccc(F)cc1)C(=O)c1ccccc1S2(=O)=O	0.1%	-24%[46.1 µM]	x	-25%[46.1 µM]	3%	x	x	0%
c1cc2c(cc1CCNC1C3CC4CC(C3)CC1C4)OCO2 (stereo unspecified)	-1.2%	-20%	3%	u	2%	1%	-2%	2%
O=C(CCC1CCCN(C(=O)c2cncs2)C1)NCc1ccc(F)c(F)c1 (stereo unspecified)	x	8%	-4%	8%[46.1 µM]	x	-2%	0%	5%
CCCCCCN=C(C)c1ccccc1O	x	0%	-17%	3%[46.1 µM]	x	-2%	1%	7%
O=C(c1cccs1)N1CCCc2cc(NS(=O)(=O)c3ccc(Br)cc3)ccc21	-3.3%	4%[46.1 µM]	x	x	-27%	x	x	-25%
CCc1ccc(C2CC(=O)N3CN(c4ccccc4)CSC3=C2C#N)cc1 (stereo unspecified)	-5.6%	x	0%	x	u	-54%	-1%	-14%
Nc1c2c(nc3cccc(Cl)c13)N(c1ccccc1)CC2	x	u	-6%	u	x	-1%	0%	20%
Clc1ncccc1-c1nnn(-c2ccccc2Br)n1	x	x	2%	x	x	-8%	-2%	67%[activator]
CCOC(=O)c1ccc(NC(=O)C2(c3ccccc3)CCOCC2)cc1	-3.9%	-6%	-15%	11%	4%	-5%[9.22 µM]	2%	-10%
CCOC(=O)c1nn(-c2ccccc2F)c2nc(-c3ccco3)c(C#N)c(=O)n12	-8.6%	4%	-1%	-4%	-28%	11%	10%	0%
CCOc1ccccc1N(CC(=O)Nc1ccc(S(=O)(=O)N2CCOCC2)cc1)S(C)(=O)=O	x	x	-4%	-15%[46.1 µM]	x	-8%	-3%	-8%
C/C(=N\N1CCCCCC1)c1c(O)n(-c2ccc(C)cc2)c(=O)[nH]c1=O	-2.8%	u	15%	u	-2%	-1%	2%	6%
CCN1C(=O)[C@H]2[C@@H](c3ccc(C)cc3)N3C(=O)N(c4ccc(C)cc4)C(=O)[C@@]3(Cc3ccc(Cl)cc3)[C@H]2C1=O	x	x	0%	x	x	10%	-8%	-23%
CN1CCN(C(=O)C2=C[C@@H](C3CCCCC3)C[C@@H](OCc3ccc(CO)cc3)O2)CC1	x	x	2%	x	x	-3%	2%	-1%
CCN1C(=O)c2cccc3c(S(=O)(=O)N4CCCC4C(=O)O)ccc1c23 (stereo unspecified)	x	0%	6%	18%	x	4%	-1%	19%
CC(O)[C@H]1CNC(=O)C(=O)N1CCc1cccc(F)c1 (stereo partly specified)	x	x	11%	x	x	-3%	1%	-12%
COc1ccc(CCNC(=S)c2ccccc2)cc1OC	x	x	-1%	1%	x	-5%	0%	u
Nc1c(Cl)c(Cl)nc(C(=O)OCC(=O)NC2CCCCC2)c1Cl	x	-4%	-8%	15%	x	-4%	6%	5%
CC1CN1P1(=O)OCC(C)([N+](=O)[O-])CO1 (stereo unspecified)	x	5%[46.1 µM]	7%	16%	x	x	x	-9%
CCOc1ccc(NC(=O)CSc2nc3c(oc4ccccc43)c(=O)n2-c2ccccc2C)cc1	-1.7%	x	x	u	u	x	x	-6%
Cn1c(Cc2ccccc2)nnc1SCC(=O)Nc1ccc2c(c1)OCO2	2.0%	-14%	12%	u	-3%	-9%	-4%	0%
O=C(CN1C(=O)NC2(CCc3ccccc32)C1=O)c1ccc(Cl)cc1 (stereo unspecified)	x	15%	-14%	8%[46.1 µM]	x	x	-2%	-23%
O=C(Oc1ccc(-c2nccc(-c3ccccn3)n2)cc1)c1cccc(C(F)(F)F)c1	4.8%	15%	-18%	u	3%	-1%	-30%	33%[activator]
COc1cc(C(=O)NCc2nc3cccnc3n2Cc2ccc(C)cc2)cc(OC)c1OC	-0.2%	6%[46.1 µM]	x	x	9%	x	x	-18%
O=C(CNc1ccccc1)N/N=C/c1c[nH]c2ccccc12	-7.9%	u	1%	-10%	-11%	u	-9%	17%
CC1(C)Oc2ccc(C(=O)Nc3ccccc3)cc2N(CC#N)C1=O	x	-7%[46.1 µM]	8%	u	x	-5%	1%	24%

Further compounds.
Structure	Cruzain Triton	Lassa entry inh	RE007 growth inh	MARV entry inh	Cruzain inh noDet	NS1 inh	SARS PLpro yeast	StopGo reporter
CCc1cccc(CC)c1NC(=O)Cn1c(-c2ccccc2Cl)nc2ccccc21	-3.1%	u	6%	25%	u	8%	-20%	49%[activator]
Cn1c(SCC(=O)Nc2ccc(N3CCOCC3)c(Cl)c2)nnc1-c1ccccc1	x	7%	16%	8%	x	-2%	x	25%
FC(F)(F)Oc1ccc(NC(=S)Nc2ccccc2N2CCOCC2)cc1	x	u	-5%	u	x	-5%	-3%	u
CCOc1ccccc1NC(=O)c1cccc2c1C(=O)N(C1CCCCC1)C2	-2.7%	-1%&23%[46.1 µM]	6%	-26%&-4%[46.1 µM]	10%	1%	-4%	-21%&-13%
COc1ccccc1NCC(=O)N/N=C(\C)c1cccs1	x	23%	-3%	5%[46.1 µM]	x	x	2%	21%
CCCCC#Cc1ccccc1CC(=O)Nc1ccccc1	-4.5%&-5.5%	0%	-4%	-4%	11%&-1%	13%	-23%	8%
CCCCC(CC(O)COCCC)C(=O)NN (stereo unspecified)	x	8%	-12%	17%[46.1 µM]	x	5%	-1%	-4%
FC(F)(F)c1nnc2ccc(NCn3nnc4ccccc43)nn12	6.0%	7%	-16%	-13%[46.1 µM]	-4%	3%	8%	0%
c1ccc(CSc2ncn[nH]2)nc1	x	6%	17%	u	x	-1%	-1%	-11%
COc1nc(NC(C)C)nc(NC(C)C)n1	5.1%&7.3%	10%	-6%	7%	-5%&-4%	-3%	9%	-4%&-17%
Cc1cc(C)c(C)c(S(=O)(=O)N2CCN(CC(=O)Nc3sccc3C#N)CC2)c1C	-4.8%	-4%	-17%	u	u	1%	9%	-1%
COC(=O)c1sccc1NC(=O)Nc1ccc(F)cc1F	x	22%[46.1 µM]	-18%	u	x	-3%	-1%	16%
Cn1c(C(=O)NC2CCCCC2)cc2c(=O)n(C)c3ccccc3c21	2.6%	x	-10%	x	u	-35%	7%	-1%
c1ccc2c(c1)c1ccccc1n2CN1CCOCC1	-7.1%	7%	-27%	13%	-5%	1%	-11%	-7%
COc1ccc(CNC(=O)CN2C(=O)COc3ccc(S(=O)(=O)NC4CCCC4)cc32)cc1	x	14%&-1%[46.1 µM]	-1%	9%&9%[46.1 µM]	x	-2%	-3%	10%&41%
CC(=O)c1ccc(NC(=O)COC(=O)C2C3CC4OC(=O)C2C4C3)cc1 (stereo unspecified)	x	6%	6%	4%[46.1 µM]	x	1%	-1%	-9%
CCN(CC)S(=O)(=O)c1ccc(/C=C/C(=O)OCC(=O)NCc2ccc3c(c2)OCO3)cc1	x	u	28%	-12%[46.1 µM]	x	7%	2%	-7%
Cc1ccnc(NC(=O)CCNC(=O)c2ccccc2Cl)c1	x	26%[46.1 µM]	4%	u	x	8%	-1%	24%
Cc1cccc(NC(=O)NNC(=O)COc2ccc([N+](=O)[O-])cc2)c1C	x	-5%	21%	-9%	x	-49%	-5%	-14%
O=c1sc2ccccc2n1Cc1ccccc1	x	u	2%	7%[46.1 µM]	x	4%	-1%	-6%
Cc1cc(C)nc(Sc2ccc(/C=C(\C#N)C(N)=O)o2)n1	-16%	0%	-2%	18%	-12%	-8%	21%	-15%
Cc1ccc(/C=N/N2CCN(c3ccncc3S(=O)(=O)N3CCCCC3)CC2)cc1	-5.4%	8%	4%	11%	u	6%	0%	u
CCOC(=O)c1cc(C)sc1/N=C/C1C(=O)CCCC1=O	-2.9%	2%	u	-12%	-8%	-4%	-13%	-12%
COCC1CCCCN1C(=O)c1ccc(OC)c(OC2CCN(C(C)C)CC2)c1 (stereo unspecified)	x	x	2%	x	x	-9%	-4%	39%[activator]
COc1cccc(NC(=O)CN(C)C(=O)c2ccc(Cl)c(S(=O)(=O)N3CCCCCC3)c2)c1	x	-9%	0%	u	x	x	-3%	-6%
Cc1ccc(-c2cc([C@H]3[C@H]4C=CC[C@@H](C)[C@@H]4C(=O)N3Cc3ccccc3)ccc2F)cc1	x	x	-8%	x	x	12%	-3%	-3%
COCCOc1ccc(C(F)(F)F)cc1NC(=O)COC(=O)c1cc[n+]([O-])cc1	x	19%	-8%	-11%[46.1 µM]	x	x	1%	25%
CC(=O)c1cccc(NC(=O)CN2C(=O)NC3(CCCCCCC3)C2=O)c1	2.3%	-1%	-7%	7%	-12%	5%	-1%	-15%
Cc1nc(SCC(=O)c2cc3ccccc3oc2=O)c(C#N)c(-c2cccs2)c1C(=O)Nc1ccccc1	x	-10%[46.1 µM]	-6%	u	x	x	5%	-16%
O=C1NC(=O)C(CCc2ccccc2)(c2ccccc2)N1 (stereo unspecified)	x	-12%	0%	-23%	x	x	x	-3%
COc1ccccc1CNC(=O)c1cccs1	1.6%	9%	20%	16%	-4%	2%	x	29%
Cn1ncc(Cl)c1C(=O)Nc1ccc(Cl)cn1	-2.4%	20%	-18%	5%	-9%	1%	-9%	19%

Assay outcomes: PubChem BioAssay, National Center for Advancing Translational Sciences (NCATS)
